Calb FLC: C. albicans growth inhibition with fluconazole, primary screen, CaCi-2 strain, Alamar Blue fluorescence | actives 0.57% (n = 300,000) | growth inhibition, % (concentration not given with the values) | AID 1979, 2009 | C. albicans CaCi-2 (fluconazole-resistant clinical isolate) + fluconazole, 48 h;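 active = most replicates above 75%; inconclusive = exactly half above 75%; inactive = most below 75%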;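 note: all wells also contain fluconazole at 8 µg/ml as a sub-toxic cotreatment; 0% = median of DMSO wells and 100% = median of geldanamycin control wells; wells of about 8 µL received 7.5 nL stock; the first replicate is given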
Beta2AR agonist: beta2AR agonists driving receptor internalization, primary screen, cell-based, FAP fluorogen, flow cytometry. actives 0.43% (n = 340,000). Am2.2-beta2AR cells; reference of the scale not given here. response, % (concentration not given with the values). Beta-2 adrenergic receptor (Homo sapiens), P07550;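 active = response above a set limit, near 3 SD of response in nonfluorescent compounds, cut at about 42% in these data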;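 note: stock transfer was 100 nL into about 11 µL; a reference agonist was the positive control; negative values mostly stem from fluorescent compounds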
RanGTP-Impb inh: inhibitors of RanGTP-importin-beta interaction, primary screen, biochemical, FRET, CFP-Ran, YFP-importin-beta, homogeneous | inhibition, % (concentration not given with the values) | cell-free CFP-Ran/YFP-importin-beta FRET ratio | actives 1.1% (n = 300,000);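 active = most replicates above 15%; inconclusive = exactly half above 15%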;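 note: 0% = DMSO wells and 100% = Ran loaded with GDP instead of GTP; wells of about 40 µL received 100 nL stock; the first replicate is given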
LANA-H2B inh: blockers of LANA interaction with H2A/H2B – biochemical, FP readout, HTS, primary screen. cell-free LANA-H2A/H2B peptide, fluorescence polarization. inhibition, % (no concentration beside the values). actives 0.6% (n = 320,000). AID 2629, 2010; in the data active = inhibition mostly above about 10%, no sharp cut-off; inactive = mostly below about 6.7%;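 note: stock transfer was 7.5 nL into about 10 µL; 0% = median of vehicle wells and 100% = median of positive control wells; one replicate is shown; the record names a cut of 25% in any replicate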
Target sequence (Q9QR71 whole entry, looked up): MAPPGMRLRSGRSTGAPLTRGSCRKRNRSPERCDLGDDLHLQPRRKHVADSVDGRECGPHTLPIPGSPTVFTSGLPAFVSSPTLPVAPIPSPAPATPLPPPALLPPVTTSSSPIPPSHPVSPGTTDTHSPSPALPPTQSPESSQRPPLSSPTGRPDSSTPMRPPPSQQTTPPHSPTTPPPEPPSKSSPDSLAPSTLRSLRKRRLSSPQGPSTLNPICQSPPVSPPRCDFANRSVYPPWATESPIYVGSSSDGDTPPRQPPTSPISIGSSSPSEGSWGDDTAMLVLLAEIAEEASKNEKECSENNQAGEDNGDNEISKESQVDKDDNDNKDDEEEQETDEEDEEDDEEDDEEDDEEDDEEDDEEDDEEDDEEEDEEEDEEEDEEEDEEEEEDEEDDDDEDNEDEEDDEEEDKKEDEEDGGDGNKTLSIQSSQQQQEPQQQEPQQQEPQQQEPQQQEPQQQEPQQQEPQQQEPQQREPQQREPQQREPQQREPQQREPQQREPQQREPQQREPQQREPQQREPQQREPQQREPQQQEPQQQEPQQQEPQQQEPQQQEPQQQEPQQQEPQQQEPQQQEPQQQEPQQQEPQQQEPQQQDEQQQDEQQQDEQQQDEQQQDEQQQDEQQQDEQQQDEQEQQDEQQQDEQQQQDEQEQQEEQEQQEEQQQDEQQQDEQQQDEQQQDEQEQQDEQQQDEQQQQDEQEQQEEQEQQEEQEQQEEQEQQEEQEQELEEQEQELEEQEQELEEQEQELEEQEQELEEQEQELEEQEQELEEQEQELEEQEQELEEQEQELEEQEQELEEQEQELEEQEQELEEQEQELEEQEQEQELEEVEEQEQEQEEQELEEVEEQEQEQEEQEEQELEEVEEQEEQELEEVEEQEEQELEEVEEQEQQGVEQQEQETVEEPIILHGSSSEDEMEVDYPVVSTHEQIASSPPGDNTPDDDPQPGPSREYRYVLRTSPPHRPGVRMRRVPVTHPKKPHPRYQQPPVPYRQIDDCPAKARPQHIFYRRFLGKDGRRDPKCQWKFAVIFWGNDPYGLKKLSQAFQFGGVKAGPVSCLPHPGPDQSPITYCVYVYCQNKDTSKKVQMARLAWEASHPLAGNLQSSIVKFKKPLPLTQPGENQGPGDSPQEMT
Bfl-1 A1 inh: caspase 3/7 activation in MEF A1-2A-BIM cells, primary screen, A1 inhibitor project, cell-based, luminescence, HTS. AID 2462, 2010. actives 0.066% (n = 330,000). caspase activation, % (test concentration not listed). Caspase-Glo 3/7 luminescence, 3 h; percent of clofoctol response, vehicle zero;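 active = over half of replicate activation scores above 10%, or exactly half above 10 with the replicate mean above 10; inconclusive = replicate mean below 10 yet half the replicates above 10; inactive = over half of replicates below 10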;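 note: wells of about 30 µL received 50 nL stock; many hits fall short of the cut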
Beta cell apopt: inhibitors of cytokine-induced beta cell apoptosis, primary screen, luminescence | INS-1E cytokine-induced death, ATP luminescence, 48 h; percent of positive-control rescue, neutral wells zero | protection from apoptosis, % (test concentration not listed) | actives 0.8% (n = 300,000);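 active = all replicates at 75% or more, or half of them and the mean; inconclusive = half reach 75% but not the mean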;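 note: 0% = cytokine-treated negative control wells and 100% = positive control rescue; higher means more ATP so stronger rescue from cytokine killing; wells of about 40 µL received 100 nL stock; the first replicate is given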
UCH37 DUB inh: inhibitors of human UCH37 deubiquitinase, primary screen, biochemical, Ub-AMC cleavage, fluorescence | purified proteasome/UCH37 | inhibition, % (no concentration beside the values) | actives 0.33% (n = 330,000) | AID 588478, 2011;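 active = mean of two replicates above 20%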;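 note: 0% = compound-free wells with enzyme and 100% = wells lacking proteasome; stock transfer was 100 nL into about 20 µL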
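system = Proteasome-associated human UCH37 deubiquitinase | amount = 0.15 nM proteasome as dispensed | medium = pH 7.4 Tris-HCl (50 mM) with ovalbumin, ATP-MgCl2, DTT | incubation = 30 min preincubation with enzyme, 25 min cleavage at room temperature | detection = AMC fluorescence 355/460 nm | read-out basis = percent inhibition | controls = no-proteasome and no-compound wells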
T cruzi inh: inhibitors of intracellular T. cruzi growth, primary screen, luminescence, NIH3T3 host cells; T. cruzi beta-gal in NIH3T3, 90 h; AID 1885, 2009; inhibition, % (no concentration beside the values); actives 1.4% (n = 300,000);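 active = mean inhibition across valid replicates above about 55%, limit read from the data; inconclusive = mean below that limit but half or more replicates reach it; inactive = mean below it, under half of replicates reach it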;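 note: signal also drops with host cell toxicity which is not excluded here; 0% = plate median of DMSO wells and 100% = zero luminescence signal; higher percent means less beta-gal luminescence so fewer parasites; stock transfer was 50 nL into about 50 µL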
The depositor's hits bear a star; ? = inconclusive; · = no result given.

Every second line gives: Calb FLC	Beta2AR agonist	RanGTP-Impb inh	LANA-H2B inh	Bfl-1 A1 inh	Beta cell apopt	UCH37 DUB inh	T cruzi inh
- CCC(Sc1nnnn1C)C(=O)Nc1ccc(C(C)=O)cc1 (configuration not stated)
→ ·	3	2.1	-0.8	-0.2	-4	2.5	0
- COc1ccc(OCC(=O)Nc2cccc3ncccc23)cc1
→ 0	2	1.2	5.3	0.6	6	-0.5	4
- O=[N+]1C2=C(CCCC2)N([O-])C12CCCC2
→ 10	6	-0.1	2.0	-0.9	-2	2.4	-8
- Cc1ccc(NC(=O)CN(C)C(C)C(=O)Nc2ccc(S(=O)(=O)N3CCCC3)cc2)cc1 (configuration not stated)
→ -3	-4	-3.6	-4.0	0.0	6	4.2	-8
- COC(=O)C(Cc1ccc(O)cc1)NC(=O)c1ccccc1OC (configuration not stated)
→ 9	30	-3.0	2.7	-0.2	-3	0.2	0
- CCCN1CCN(C(=O)Cn2cccc2C(=O)c2ccccc2)CC1
→ -2	-7	1.4	-0.8	0.1	2	4.1	2
- NC(=O)c1ccccc1NC(=O)/C=C/c1c(Cl)cccc1Cl
→ 10	0	6.2	1.0	-2.5	3	-8.4	28
- COc1ccc(CCNC(=O)c2c(-c3ccccc3Cl)noc2C)cc1
→ 19	-2	?	0.2	0.2	·	1.6	-2
- c1ccc(CSc2nnc3ccc(-c4ccco4)nn23)nc1
→ 9	1	1.5	2.3	-0.8	0	-4.7	8
- Cc1nn(Cc2c(F)c(F)c(F)c(F)c2F)c(C)c1NC(=O)c1nn(C)cc1Br
→ 0	0	3.9	2.5	-0.9	1	-2.9	5
- N#CC1=C(N)Oc2ccc3ccc(O)cc3c2C1c1ccsc1 (configuration not stated)
→ 27	10	-5.3	·	·	·	3.0	-22
- COc1ccc(C(=O)N[C@H](C(=O)Nc2nc3ccccc3[nH]2)C(C)C)cc1
→ 17	-7	-1.9	-1.3	0.7	42	3.9	25
- CCCN1C2CCCC1CC(NC(=O)Nc1ccc(C(C)C)cc1)C2 (configuration not stated)
→ -7	5	-4.2	-1.1	0.6	2	0.9	15
- COC(=O)C1=C(NC(=O)C(C)(C)C)CCS1
→ -1	2	-0.2	7.9	0.5	5	1.3	8
- COc1ccc(-c2cccc(C(=O)Nc3ccccc3C)c2)cc1
→ -18	-2	-0.9	3.5	0.5	4	4.2	-6
- CCCCn1nc2cc(C(=O)NCC34CC5CC(CC(C5)C3)C4)ccc2c1OCC
→ 0	11	0.8	-5.8	0.5	3	-19	20
- CC1CCN(CC(=O)Nc2ccccc2C(=O)NC2CC2)CC1
→ ·	8	·	5.3	1.2	-1	-3.3	·
- CCC(Sc1nnc(C)c(=O)[nH]1)C(=O)Nc1cccc2ccccc12 (configuration not stated)
→ 0	8	?	-3.2	-0.3	0	-2.6	-15
- CC(C)n1c(SCC(N)=O)nc2c1c(=O)n(C)c(=O)n2C
→ 1	-4	-1.7	4.4	1.4	-1	0.1	-10
- O=C(CSc1nc2ccc(Cl)cc2o1)NCc1ccc2c(c1)OCO2
→ 3	-2	9.4	-4.7	-1.1	-2	-0.2	2
- Cc1ccc(C(=O)C(OC(=O)CNS(=O)(=O)c2ccccc2)c2ccccc2)cc1 (configuration not stated)
→ ?	4	5.6	0.2	-0.3	-7	5.3	-14
- COc1ccc(/C=N/Nc2nc(-c3ccc(C)cc3)c(NC(C)=O)s2)cc1
→ 2	14	-1.9	-3.8	-0.1	-7	·	-8
- COc1ccc(N2CCN(C(=O)c3cccc(N4C(=O)C5CC=CC(C)C5C4=O)c3)CC2)cc1 (configuration not stated)
→ ·	-2	·	1.4	-0.2	·	5.5	·
- Cc1cccc(NC(=O)CSc2nc3ccccc3nc2N2CC(C)OC(C)C2)c1 (configuration not stated)
→ 8	0	2.4	0.6	0.4	4	-4.7	18
- O=C(CSC1CC(=O)N(CCc2ccccc2)C1=O)Nc1ccc(Cl)cc1 (configuration not stated)
→ 8	-6	-0.3	-0.5	0.0	·	-3.4	1
- CCn1c(SCC(=O)Nc2ccc3c(c2)c2ccccc2n3CC)nnc1-c1ccco1
→ 1	7	2.9	0.1	0.3	3	5.2	-21
- COc1ccc(NC(=O)CSc2nc(C3CC3)nc3ccccc23)c(OC)c1
→ 2	-16	1.3	4.8	-0.6	-4	2.1	10
- COc1cccc(C2CC(c3cccc(Br)c3)n3ncnc3N2)c1 (configuration not stated)
→ 12	-2	-4.7	-1.4	0.3	4	3.1	5
- CC(C)=CC(=O)OCC(=O)Nc1ccccc1Cl
→ ·	-2	?	0.7	-0.5	-2	-1.8	-7
- O=C(Nc1ccc(C2=NCCN2)cc1)c1ccc(C(=O)Nc2ccc(C3=NCCN3)cc2)c(Cl)c1
→ 90*	1	2.6	-3.0	0.8	19	·	14
- CC(C)(C)NC(=O)C(c1c[nH]c2ccccc12)N(C(=O)Cn1nnc(-c2ccc(F)cc2)n1)c1cccc(O)c1 (configuration not stated)
→ 23	4	-3.0	-1.3	0.3	-8	7.5	14
- O=C(O)CNS(=O)(=O)c1ccc(F)cc1
→ 20	-20	-3.0	-0.9	-0.1	-1	4.5	-5
- CN1CCN(C(=O)c2ccc3c(c2)NC(=O)C(C)(C)O3)CC1
→ -3	-8	-2.9	-2.7	1.4	2	-1.0	-7
- CC(C)(C)c1csc(NC(=O)CCc2ccccc2)n1
→ -5	22	2.6	-0.8	0.8	·	3.0	-10
- Cc1ccc(CS(=O)(=O)Cc2ccc(C(=O)NCCCN3CCOCC3)o2)cc1
→ -5	3	0.0	10.0	0.5	-6	5.0	1
- Cc1ccc(NC(=O)NC(=O)COc2ccc(Cl)cc2Cl)c(C)c1
→ 8	0	0.5	1.1	-1.3	-5	1.1	-1
- Cc1cnc(NC(=O)CCN2C(=O)C3CCCCC3C2=O)s1 (configuration not stated)
→ 18	-4	1.6	-1.7	0.6	-2	1.2	-3
- Cn1c(=S)n(CCC(=O)O)c2ccccc21
→ -1	-2	-1.6	-0.5	0.1	-4	0.3	5
- C=CCn1ccc(O)c(Cc2ccc(Cl)cc2)c1=O
→ 1	-5	-0.1	-6.5	2.7	1	1.8	-5
- O=C(CCc1c[nH]c2ccccc12)N1CCCCCCC1
→ -2	0	-1.7	60*	0.6	1	3.5	21
- Cc1c(CCC(=O)N2CCC(C(=O)NCCCCCC(=O)O)CC2)c(=O)oc2cc3oc4c(c3cc12)CCCC4
→ 13	-5	-0.3	7.4	-0.2	1	-64	-16
- C=CC[n+]1cccc(-c2cc3ccc(C)cc3[nH]2)c1
→ -19	2	2.4	1.0	1.3	33	10	-8
- CCn1cc(C(=O)NCCCOC(C)C)c2cc(OC)c(OC)cc2c1=O
→ 4	-3	2.7	4.4	1.0	-2	5.9	4
- COc1ccccc1C1CC(c2ccccc2)=NN1C(=O)c1ccccc1 (configuration not stated)
→ 7	13	-3.8	-3.8	0.3	11	4.2	30
- COCc1cc(Sc2ccc(Cl)cc2Cl)nc(-c2ccccc2)n1
→ 6	5	-0.9	1.4	-0.7	12	2.2	18
- Cc1ccc(S(=O)(=O)NNC(=O)c2ccc3ccccc3n2)cc1
→ 4	-2	6.7	2.3	-0.2	-3	2.2	-1
- Cc1ccc2nc(SCC(=O)N3CCN(c4ccccc4)CC3)nc(=O)n2c1
→ 4	8	-2.5	·	-0.3	2	7.9	-16
- O=c1oc2c(Cl)cc(Cl)cc2cc1-c1nnc(Nc2ccccc2F)s1
→ -4	·	-1.6	6.2	0.9	1	·	-9
- O=C(NN1C(=O)C2C(C1=O)C1C=CC2C12CC2)c1cccc(Cl)c1 (configuration not stated)
→ -3	2	0.5	-1.5	-0.7	2	1.6	-16
- COc1cccc(C(=O)O[C@@H]2[C@H](Cc3ccccc3)NS(=O)(=O)[C@H]3C[C@@H]4C=C[C@]23O4)c1
→ ·	-3	·	-6.5	-0.3	1	-0.3	·

Next part.
Every second line gives: Calb FLC	Beta2AR agonist	RanGTP-Impb inh	LANA-H2B inh	Bfl-1 A1 inh	Beta cell apopt	UCH37 DUB inh	T cruzi inh
- C/C(=N\NC(=O)c1cccc(S(=O)(=O)N2CCOCC2)c1)c1ccc(OCC(=O)N(C)C)cc1
→ 2	-3	·	-5.2	-0.2	1	·	-6
- CNC(=O)c1[nH]cnc1C(=O)Nc1ccc(C)cc1
→ -1	3	-1.0	-0.1	-0.3	-9	1.0	-14
- Cc1ccc(O)c(C(=O)c2cnn(-c3ccccc3)c2)c1
→ -1	1	-0.5	2.3	-3.5	1	1.1	-8
- CSc1nc(C)c2c(c1C#N)CCCC2
→ -1	13	-2.0	-0.4	0.8	-2	1.3	3
- CCOc1ccc(-n2c(C)nc(O)c2N=Nc2ccccc2)cc1
→ ?	2	0.8	2.5	-0.5	-1	-0.4	-24
- O=C(NCCc1cccc(Cl)c1)c1cccs1
→ -16	-5	-0.9	2.0	-0.8	-3	-0.3	-7
- O=C(Cn1cnc2c(cnn2-c2ccc(Cl)cc2)c1=O)NCC1CCCO1 (configuration not stated)
→ 16	-5	?	0.5	-0.4	-2	1.3	-32
- Cc1cc(C)c([N+](=O)[O-])cc1-c1ccc(/C=N/c2c(-c3ccco3)nc3ccccn23)o1
→ 2	-20	?	5.7	-2.7	2	·	12
- O=C(O)CCc1ccc(NCc2cccc(Oc3ccccc3)c2)cc1
→ -5	-24	-3.6	0.8	-2.6	·	3.2	-7
- CC(Oc1ccc(C(=O)NCCc2ccccc2)cc1)C(=O)O (configuration not stated)
→ 0	-7	0.2	4.5	-2.8	-1	-1.2	-9
- CCc1ccc(-n2c(=O)c3ccccc3n3c(=S)[nH]nc23)cc1
→ -7	4	1.1	1.2	0.8	-3	-1.3	-3
- Cc1ccc2c(c1)c1nc3ccccc3nc1n2CCN1CCOCC1
→ -25	-9	0.7	1.5	-3.6	13	3.9	16
- Cc1ccc(-c2n[nH]c(=S)c3ccccc23)cc1S(=O)(=O)NCC1CCCO1 (configuration not stated)
→ 57	-5	0.5	-3.9	0.0	-4	5.6	9
- O=C(Nc1c(C(=O)N2CCOCC2)oc2ccccc12)c1ccccc1Cl
→ 6	-1	8.6	-0.7	0.4	-3	1.5	2
- CCN(CC)C(=O)c1cccc(NC(=O)C2=COCCO2)c1
→ ·	-3	·	18*	0.5	1	2.6	·
- COc1ccccc1C1CCN(C(=S)Nc2ccc(Br)cc2)CC1
→ -18	-20	-4.5	-5.8	0.7	-6	4.1	5
- O[C@@H]1C2CCCC1[C@]1(O)CCCCC1C2 (some centres not stated)
→ 0	4	-2.3	2.3	0.3	-5	1.7	-12
- Cc1ccccc1N=Nc1c(O)n(C)c2ccccc12
→ 6	13	?	3.2	0.2	-5	0.3	-27

Screening data: PubChem, several laboratories
